Source: PubChem
AID504770 = E. coli YBA685 growth inhibition, screen for V. cholerae RctB inhibitors | AID 504770 | E. coli YBA685 rctB-dependent plasmid, OD600 growth, 3 h; active compounds read low | 0.27% of 130,000 active | z-score (no concentration beside the values);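 active = z-score under -2 on both plates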;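 also: wells of about 30 µL received 100 nL stock; score is relative to mean and SD of the test wells; the first replicate is given; strong numbers were not always called active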
CapD inh = blocks the Bacillus anthracis CapD enzyme; purified CapD enzyme, fluorescence intensity read-out; active compounds read low; some hits fall short of the stated cut; z-score (test concentration not listed); 0.23% of 140,000 active; AID 492967;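 active = z-score under -4 in either of two replicates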;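 also: stock transfer was 100 nL into about 40 µL; score is relative to mean and spread of the plate; one replicate is shown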
The depositor's hits bear a star; · = no result given.

Each structure is followed by: AID504770	CapD inh
NC(=O)c1ccsc1NC(=O)COc1ccccc1
→ -0.1	1.5
O=C(O)C1CCCN1S(=O)(=O)c1cccc2nsnc12 (stereo not given)
→ ·	-0.76
N#C/C(=C/c1cc(Br)c(Br)o1)c1ccccc1
→ -0.25	1.5
CCOC(=O)c1cc2c(ccc3ccccc32)o1
→ 0.25	74
CC(=O)NC1C2CN3CCN(C2)CC1(Cc1ccccc1)C3 (stereo not given)
→ -0.75	-0.15
CCc1ccc(N2C(=O)CC(Sc3ccccn3)C2=O)cc1 (stereo not given)
→ -0.55	0.33
CCC(CO)n1c(SCc2ccc(C#N)cc2)nc2cc(OC)c(OC)cc2c1=O (stereo not given)
→ -1.2	·
CN1C(=O)c2[nH]nc(-c3ccccc3)c2C1c1cccnc1 (stereo not given)
→ 0.4	-0.41
COc1ccc2cc(C3C4=C(CC(C)(C)CC4=O)OC4=C3C(=O)CC(C)(C)C4)c(=O)[nH]c2c1
→ ·	-0.34
COC(=O)c1cccc(-n2c(CCC(=O)O)ccc2-c2ccccc2)c1
→ 0.05	-0.29
NS(=O)(=O)c1ccc(C(=O)O)cc1
→ ·	0.34
CC(OC(=O)c1nn(C)c(=O)c2ccccc12)c1ccccc1 (stereo not given)
→ 0.1	·
O=CNNC(=O)c1cc2sccc2nc1C(F)(F)F
→ ·	0.18
CC(C)(C)c1ccc(COC(=O)N2CCC(O)CC2)cc1
→ ·	-0.78
Cc1oc(-c2ccccc2)nc1C(=O)NC12CC3CC(CC(C3)C1)C2
→ 0.2	·

Each structure is followed by: AID504770	CapD inh
O=C(NNC(=O)c1ccccc1NC(=O)c1cccs1)OCc1ccccc1OC(F)(F)F
→ ·	25
CCCCOc1ccc(C2C(N3C(=O)c4ccccc4C3=O)C(=O)N2c2cccc(C(F)(F)F)c2)cc1 (stereo not given)
→ ·	-0.17
O=C(O)CSCC(=O)N1CCN(C(=O)c2ccc(Cl)cc2)CC1
→ -0.2	0.51
COc1cc(C=C2C(=O)NC(=O)NC2=O)ccc1OC(=O)c1ccc(Cl)cc1
→ ·	0.085
CC1CCN(CC(C)OC(=O)C2COc3ccccc3O2)CC1 (stereo not given)
→ -0.1	0.47
COc1ccc(C2CC(=O)C3=C(C2)c2c(ccc4ccccc24)NC3c2ccc(OC)c(OC)c2)cc1 (stereo not given)
→ ·	31
COc1ccc(Br)cc1-c1noc(C)n1
→ -0.7	0.12
O=c1c(-c2ccccc2)c(O)c2cccc3c4ccccc4n1c23
→ 0	15
COc1ccc(C(=O)Nc2ccc(N3CCOCC3)c(F)c2)cc1
→ -0.3	0.52
Cc1ccc(C(=O)N(c2ccccn2)C(C)c2ccco2)cc1 (stereo not given)
→ -1.1	-0.96
C/C=C/C(=O)OCc1ccccc1Cl
→ -0.95	·
COc1ccc(OC)c(C2Nc3cccc4cccc(c34)N2)c1
→ ·	8.3
Cc1ccccc1NC(=O)COc1ccc2c(c1)OC(C)(C)CC2=O
→ 0.05	9.5
O=C(CSc1nnc(CCCN2C(=O)c3cccc4cccc(c34)C2=O)n1-c1ccccc1)NCCCn1ccnc1
→ ·	30
C1CCN2C[C@H]3C[C@H](CN4CCCC[C@@H]34)[C@H]2C1
→ ·	-0.48

Each structure is followed by: AID504770	CapD inh
COc1cccc(N2C(=O)/C(=C/c3cccc(O)c3)SC2=S)c1
→ 1.1	0.55
Nc1ccc2c(c1)S(=O)(=O)C=C2
→ ·	-0.03
CS(=O)(=O)N1CC2CCCN2c2ccc(C(F)(F)F)cc21 (stereo not given)
→ 0.4	0.34
O=C(COC(=O)C1CCCCC1)Nc1ccc(N2CCCCC2)cc1
→ -0.3	-0.91
Cc1oc(-c2ccccc2Cl)nc1CS(=O)CC(=O)NC1CC1 (stereo not given)
→ 1.7	3.8
CC(C)c1ccc(NC(=O)CSc2ncccn2)cc1
→ 1	-0.16
COc1cccc(OCCOc2ccc([N+](=O)[O-])cc2/C=c2\sc3nc4ccccc4n3c2=O)c1
→ ·	0.77
COc1ccc(CNC(=O)c2ccc(OC)cc2OC)cc1
→ 0.9	0.38
CCOC(=O)c1ccc(N2C(=O)C3C(c4ccc(F)cc4)OC4(C(=O)c5ccccc5C4=O)C3C2=O)cc1 (stereo not given)
→ ·	-0.39
CC(=O)Nc1ccc(SC2CCOC2=O)cc1 (stereo not given)
→ -0.05	·
COc1ccc(NC(=O)CN2CCN(S(=O)(=O)/C=C/c3ccccc3)CC2)cc1
→ 0.7	·
Cc1ccc(C(C)C)c(OCC(=O)Nc2nonc2NC(=O)COc2cc(C)ccc2C(C)C)c1
→ 1.4	-0.16
N#CCc1ccc(NC2(C#N)CCCCC2)cc1
→ -1.4	0.21
Cc1cc(O)c(C=Nc2ccc(F)cc2)c(=O)o1
→ -0.4	0.49
CCOC(=O)C1CCN(c2ccc(S(C)(=O)=O)cc2N)CC1
→ ·	1.6

Each structure is followed by: AID504770	CapD inh
CCc1nnc(NC(=O)c2sc3nc(-c4cccs4)cc(C(F)(F)F)c3c2N)s1
→ ·	0.69
CC1(C)OC(CO)C(CO)O1 (stereo not given)
→ -0.25	0.14
Cc1c(C#N)c(NC(=O)CN2CCCCC2C)n(Cc2ccco2)c1C (stereo not given)
→ -0.15	·
Cc1ccc(S(=O)(=O)c2cnc(-c3ccccc3)nc2N2CCOCC2)cc1
→ ·	-0.43
Cc1cccc(-n2c(SCC(N)=O)nc3ccccc3c2=O)c1
→ 0.4	·
O=c1c(C/C=C/c2ccccc2)c(O)ccn1Cc1cccc(Cl)c1
→ ·	-0.64
O=C(O)CC(CC(=O)Nc1ccc(I)cc1F)c1ccccc1 (stereo not given)
→ -1.2	-0.64
N=C1C(c2nc3ccccc3s2)=C(O)CN1/N=C/c1ccc(-c2ccc(S(=O)(=O)Nc3ncccn3)cc2)o1
→ 1.3	·
COc1ccc(/C=C(\C#N)c2nc(-c3cc4c(ccc5ccccc54)oc3=O)cs2)cc1OC
→ ·	0.76
COc1cc([N+](=O)[O-])ccc1NC(=O)Cn1c2ccccc2c(=O)c2ccccc21
→ ·	1.5
FC(F)(F)C1(C(F)(F)F)N=C(c2cccnc2)N(c2ccccc2)N1
→ -0.8	-1.4
CCC(Sc1nc2ccccc2c(=O)n1NC(=O)c1cccs1)C(=O)NCc1cccnc1 (stereo not given)
→ ·	0.91
N#Cc1ccc(CN2CCc3ccccc3C2)cc1
→ -0.65	0.81
NNC(=O)c1nc(-c2ccccc2)cc(-c2ccccc2)n1
→ 0.45	-0.07
N#C/C(=C\c1ccc(N2CCOCC2)o1)C(=O)NCC1CCCO1 (stereo not given)
→ -0.4	·

Each structure is followed by: AID504770	CapD inh
O=S(=O)(c1ccc(Br)s1)N1CCCC1c1ccc2c(c1)OCCCO2 (stereo not given)
→ -0.45	·
O=C1OC(c2ccccc2)=N/C1=C\c1cn(-c2ccccc2)nc1-c1cccs1
→ 1.8	-0.42
OCCNc1ncnc2ccccc12
→ 1.6	-0.38
CCOc1ccc(-c2cc(C)n3nc(C(=O)Nc4cc(OC)c(Cl)cc4OC)cc3n2)cc1
→ ·	0.17
c1ccc(-c2nn[nH]n2)cc1
→ -1.1	-0.34
COc1ccc(C2=NN3C(C2)c2cccc(OC)c2OC3c2ccccc2Cl)cc1 (stereo not given)
→ ·	-0.11
CCOC(OCC)P(=O)(c1ccccc1)c1ccccc1
→ 1	0.05
c1nc2c3sc4nc(N5CCOCC5)c5c(c4c3ncn2n1)CCC5
→ 1.4	·
NCCc1c[nH]c2ccc(F)cc12
→ -0.35	-0.34
CCOC(=O)C1CCN(C(=O)c2ccc(C)cc2)CC1
→ 1.2	·
O=C1CC(c2cc(Br)ccc2F)c2ccc3ccccc3c2N1 (stereo not given)
→ ·	-0.03
C#CC(C)(C)NC(=O)c1ccc(-c2ccccc2F)cc1
→ ·	0.94
CC(C)(C)OC(=O)NCc1n[nH]c(=S)n1Cc1ccccc1
→ ·	-0.075
O=C(COC(=O)C12CCC(=O)N1c1ccccc1S2)c1c[nH]c2ccccc12 (stereo not given)
→ -0.2	·
N#Cc1nc2[nH]c(-c3ccccc3)cc(=O)n2c1C#N
→ 0.1	·

Each structure is followed by: AID504770	CapD inh
COc1ccc(OC)c(NC(=O)C2=C(C)NC(=O)NC2c2ccc(Cl)cc2)c1 (stereo not given)
→ ·	-1.1
CCc1c(O)nc(SCC(=O)NC(C)(C)C)n(-c2ccc(F)cc2)c1=O
→ 1.9	0.3
Cc1cc(SCC(=O)N(C)C2CCS(=O)(=O)C2)nc2ccccc12 (stereo not given)
→ -0.1	·
CCCC1=C(C(=O)OCC)C2(C(=O)Nc3ccccc32)C(C(=O)OC(C)C)=C(N)O1 (stereo not given)
→ ·	0.13
CNC(=S)NCc1ccc2[nH]c3c(c2c1)CCCC3
→ 0.1	-1.2
CC(C)CNC(=O)C(C)c1ccc(CC(C)C)cc1 (stereo not given)
→ 0.2	0.16
O=C(c1cccc([N+](=O)[O-])c1)c1cc2cc(Br)cc(Br)c2o1
→ ·	-0.24
COc1ccc(C2CC(C(F)(F)F)n3nc(C(=O)N4CCN(c5cccc(Cl)c5)CC4)cc3N2)cc1OC (stereo not given)
→ ·	-0.8
CC(C)(C)c1csc(NC(=O)c2ccc(Br)o2)n1
→ 0.1	-0.48
O=C(NCCO)c1ccc2nc(-c3ccco3)c(-c3ccco3)nc2c1
→ -0.6	·
Cc1ccc(S(=O)(=O)c2nc(-c3ccccc3Br)oc2N(C)C)cc1
→ -1.1	0.06
FC(F)(F)c1cc2[nH]c(=S)[nH]c2cc1Cl
→ -0.6	0.92
Cc1ccnc(NC2c3ccccc3C(=O)N2Cc2ccccc2)c1 (stereo not given)
→ 0.25	-0.08
COc1ccc(C2=NN(C(=O)CSc3nnc(CNC(=O)c4cccs4)n3C)C(c3ccc(OC)cc3)C2)cc1 (stereo not given)
→ ·	1.2
O=C(CC1SC(=O)NC1=O)Nc1cccc(NC(=O)CC2SC(=O)NC2=O)c1 (stereo not given)
→ -0.4	-1.4

Sorted by molar mass (low to high): some entries from above
Each structure is followed by: AID504770	CapD inh
NC(=O)c1ccsc1NC(=O)COc1ccccc1
→ -0.1	1.5
O=c1c(-c2ccccc2)c(O)c2cccc3c4ccccc4n1c23
→ 0	15
Cc1cc(SCC(=O)N(C)C2CCS(=O)(=O)C2)nc2ccccc12 (stereo not given)
→ -0.1	·

Continued:
Each structure is followed by: AID504770	CapD inh
Cc1cc(Nc2ccccc2)nc2cc(O)ccc12
→ -0.75	81
Cc1ccc(OCc2nc(C#N)c(NCCCN(C)C)o2)cc1
→ 0.15	-0.17
O=C(CSCc1c(Cl)cccc1Cl)NNC(=S)NC1CC2C=CC1C2 (stereo not given)
→ ·	-0.33
CCOC(=O)c1ccc(N=C2SC(C(=O)O)CC(=O)N2Cc2cccs2)cc1 (stereo not given)
→ -0.55	-0.28
c1ccc(-c2noc(CNC3CCCCC3)n2)cc1
→ -0.8	0.39
O=c1nc2n(-c3cccc(Cl)c3)c3ccccc3cc-2c(=O)[nH]1
→ ·	-0.42
CN(C)c1ccc(/C=C2/Sc3ccccc3C2=O)cc1
→ -0.05	-0.1
CCN(CC)c1ccc(C(=O)Nc2cc(C(=O)Nc3ccccc3F)ccc2N2CC3CC(C2)c2cccc(=O)n2C3)cc1 (stereo not given)
→ ·	1.2
N/C(Cc1nc2ccccc2s1)=N\O
→ 2.2	0.5
CCC1C(c2ccccc2)NC(c2ccccc2)CC1(C)O (stereo not given)
→ ·	-0.08
CCn1c(O)c(N=NS(=O)(=O)c2ccc(C)cc2)c2cc(Cl)ccc21
→ 0.55	0.16
CCOC(=O)C1CCN(C(=O)c2sc(-c3ccccc3)nc2C)CC1
→ -0.45	0.18
CN=c1scc(-c2ccc(OC(F)F)cc2)n1/N=C/c1ccc(O)cc1
→ 0.35	·
CCN1C/C(=C\c2ccccc2)C(=O)/C(=C/c2ccccc2)C1
→ -0.4	0.17
O=C(Nc1ncn[nH]1)Nc1cccc2ccccc12
→ 0.05	45

Shown with tabs: two of the compounds above.
Molecule	AID504770	CapD inh
CN=c1scc(-c2ccc(OC(F)F)cc2)n1/N=C/c1ccc(O)cc1	0.35	·
CCN1C/C(=C\c2ccccc2)C(=O)/C(=C/c2ccccc2)C1	-0.4	0.17

The listing picks up with the 5 entries that preceded the break.
Each structure is followed by: AID504770	CapD inh
CCn1c(O)c(N=NS(=O)(=O)c2ccc(C)cc2)c2cc(Cl)ccc21
→ 0.55	0.16
CCOC(=O)C1CCN(C(=O)c2sc(-c3ccccc3)nc2C)CC1
→ -0.45	0.18
CN=c1scc(-c2ccc(OC(F)F)cc2)n1/N=C/c1ccc(O)cc1
→ 0.35	·
CCN1C/C(=C\c2ccccc2)C(=O)/C(=C/c2ccccc2)C1
→ -0.4	0.17
O=C(Nc1ncn[nH]1)Nc1cccc2ccccc12
→ 0.05	45
COc1ccc(-c2cc(C(F)(F)F)n3ncc(C(=O)Nc4cccc(O)c4)c3n2)cc1
→ 2.5	1.4
CCOC(=O)C(C#N)C1(O)C(=O)c2ccccc2C1=O (stereo not given)
→ -1.1	-0.61
Cc1nc(NCc2ccc3c(c2)OCO3)nc2c1C(=O)c1ccccc1-2
→ 0.45	0.33
COc1ccc(OC)c(C2C(N3C(=O)c4c(Cl)c(Cl)c(Cl)c(Cl)c4C3=O)C(=O)N2c2ccc(OC)c(Cl)c2)c1 (stereo not given)
→ ·	-0.15
Cc1ccc(Oc2ncccc2NC(=O)CSc2ccccn2)c2c1CCC2
→ -0.55	0.93
O=C(N/N=C/c1ccc(F)c(Br)c1)c1ccc2ccccc2c1
→ ·	0.055
CCCCOC(=O)c1ccc(O)cc1
→ ·	0.01
NC(=O)c1ccc2c(c1)S(=O)(=O)c1ccccc1C2=O
→ -0.85	-0.21
Cc1cc(C)cc(OCC(=O)NC2CCCCC2C)c1 (stereo not given)
→ -2.5	·
O=C(O)CCCn1c(=O)c2cc3c(=O)n(CCCC(=O)O)c(=O)c3cc2c1=O
→ 0.65	0.22
Cc1cc(C)c(C#N)c(SCCSc2nc(C)cc(C)c2C#N)n1
→ ·	-0.28
